Bioassay records (PubChem)
Casp1 inh: qHTS Assay for Allosteric/Competitive Inhibitors of Caspase-1; Caspase-1 enzyme, Ac-WEHD-AFC fluorogenic rate; P29466; 75,000 tested, 0.03% active; Potency, µM (series often up to 57.5 µM), for inactives: at the highest dose activity change, negative = inhibition, usual class: inhibitors;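 also: potency is read from the fitted curve at half-maximal effect; plate controls were vehicle for no effect and no substrate for full effect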
Target sequence (P29466 120-297 limits assumed): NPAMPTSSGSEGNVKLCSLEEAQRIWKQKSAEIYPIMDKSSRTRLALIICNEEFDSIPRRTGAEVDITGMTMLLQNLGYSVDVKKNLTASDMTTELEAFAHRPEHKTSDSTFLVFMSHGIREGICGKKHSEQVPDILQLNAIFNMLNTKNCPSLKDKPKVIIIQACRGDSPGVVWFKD
Target sequence (P29466 317-404 limits assumed): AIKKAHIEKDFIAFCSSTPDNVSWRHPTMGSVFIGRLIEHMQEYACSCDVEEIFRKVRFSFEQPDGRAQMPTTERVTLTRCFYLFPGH
Rhodamine fluor: qHTS Assay for Spectroscopic Profiling in Rhodamine Spectral Region; max dye-equivalent concentration, M; Rhodamine-region fluorescence, 547/598 nm, Tris buffer; stronger effect = higher value; 59,000 tested, 0.05% active; in the data active = max dye-equivalent concentration above about 11 nM
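A six-point rhodamine series on each plate calibrates the signal. Compounds sit in 100 mM Tris (pH 8.0) for 15 min at ambient temperature before imaging through 547 nm/598 nm filters.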
USP2a inh: qHTS Assay for Inhibitors of Ubiquitin-specific Protease USP2a; Ubiquitin carboxyl-terminal hydrolase 2 (Homo sapiens), O75604; USP2a enzymatic assay, qHTS inhibition; Potency, µM (top dose mostly 38.3 µM), for the others: at the top dose activity change, negative = inhibition, hits mostly inhibitors; 60,000 tested, 0.1% active;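 also: potency is read from the fitted curve at half-maximal effect; nearly all actives have a fitted effect of over 60% in size; plate controls were DMSO for no effect and NEM full inhibition control for full effect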
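Inhibition is measured in a cell-free coupled assay with 20 nM USP2 core, 20 nM Ub-PLA2 and 20 uM NBD C6-HPC, 2.5 h incubation. Activity normalized to NEM control.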
BRCT PPI green: qHTS Assay for Inhibitors of BRCT-Phosphoprotein Interaction (Green Fluorophore). BRCA1 BRCT-phosphopeptide binding, green fluorescence polarization. 75,000 tested, 0.05% active. Breast cancer type 1 susceptibility protein (Homo sapiens), P38398. Potency, µM (highest dose often 76.9 µM), inactives show at the top dose activity change, negative = inhibition, actives largely listed as inhibitors;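 also: potency is read from the fitted curve at half-maximal effect; plate controls were peptide without protein for full effect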
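Compounds were incubated for 12 min at room temperature with a complex of 100 nM fluorescein-tagged pBACH1 decapeptide and 250 nM His-tagged BRCT protein. Buffer was phosphate pH 7.3 with EDTA, DTT and Tween 20. Disruption of binding lowers the polarization signal.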
BRCT inh red: qHTS Assay for Inhibitors of BRCT-Phosphoprotein Interaction (Red Fluorophore). 75,000 tested, 0.03% active. Breast cancer type 1 susceptibility protein (Homo sapiens), P38398. BRCT-phosphopeptide binding, red fluorescence polarization. AID 892, 2007. Potency, µM (series often up to 76.9 µM), inactives show at the highest dose activity change, negative = inhibition, actives largely listed as inhibitors; also: % is scaled to controls: 0 for no effect and ±100 for the full control effect
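Fluorescence polarization: 100 nM His-tagged BRCA1 BRCT with 100 nM TAMRA-labelled phospho-BACH1 decapeptide, phosphate buffer pH 7.3 with 150 mM NaCl, DTT, 0.01% Tween 20; 12 min RT. Binding inhibition seen as FP decrease.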
Pol III holo inh: qHTS Assay for Inhibitors of DNA Polymerase III Holoenzyme System; 71,000 tested, 0.25% active; Potency, µM (highest dose often 57.1 µM), inactives show at the top dose activity change, negative = inhibition; reconstituted DNA polymerase III holoenzyme replication, biochemical; also: potency is read from the fitted curve at half-maximal effect; % is scaled to controls: 0 for no effect and ±100 for the full control effect
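Reconstituted *E. coli* holoenzyme (0.35 nM Pol III, 1 nM beta, 154 nM SSB, 2 nM primase) was preincubated with compound for 15 min at RT. Synthesis on 1.4 nM ssM13Gori ran 35 min, then was stopped with PicoGreen/EDTA and read as dsDNA fluorescence.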
Active calls of the source: *; i = inactive; nt = no result given; & = joins results of further samples; [ ] = another dose, or the depositor's remark. Unless noted, calls follow the shape of the dose curve; as a rule, active = well fitted curve in the direction sought with a large enough effect; inconclusive = small, poorly fitted or top-dose-only effect, or another doubt; inactive = no such curve, though single readings can be large; an effect the other way counts as inactive or inconclusive. This is a subset; rates above refer to the full screens.

1. CCCNCC(O)COc1ccccc1C(=O)CCc1ccccc1 (stereo unspecified)
2. CC(C)[N+]1(C)[C@@H]2CC[C@H]1CC(OC(=O)C(CO)c1ccccc1)C2 (stereo partly specified)
3. CC(C)NC[C@H](O)COc1ccc(CC(N)=O)cc1
4. CC(Cc1ccc(O)c(O)c1)C(C)Cc1ccc(O)c(O)c1 (stereo unspecified)
5. S=c1nc(-c2cccc(Br)c2)[nH][nH]1
6. CCN1c2ccccc2NC2N=C(OC)C(c3ccccc3)C21 (stereo unspecified)
7. CC(C)[N+]1(C)C2CCC1CC(OC(=O)C(CO)c1ccccc1)C2 (stereo unspecified)
8. CC(C)NCC(O)COc1ccc(CC(N)=O)cc1 (stereo unspecified)
entry no. | 1 | 2 | 3 | 4 | 5 | 6 | 7 | 8
Casp1 inh | 0% | nt | 7% | 0% | 0% | -4% | 1% | nt
Rhodamine fluor | i | i | i | i | nt | nt | nt | i
USP2a inh | 1% | nt | 4% | nt | 0% | 15% | -8% | nt
BRCT inh red | -0.8% | nt | 2.4% | -1.7% | 1.1% | -0.4% | 1.3% | nt
Pol III holo inh | nt | nt | 1% | nt | -5% | 0% | nt | nt
BRCT PPI green | -2.4%[3.08 µM] | nt | -1.7% | -3.3% | -0.9% | -0.7% | -7.6%[3.08 µM] | nt

9. O=C(c1ccc(OCCN2CCCCC2)cc1)c1c(-c2ccc(O)cc2)sc2cc(O)ccc12
10. Cc1cnc(C(=O)NCCc2ccc(S(=O)(=O)NC(=O)NC3CCCCC3)cc2)cn1
11. NCCc1ccc(O)c(O)c1
12. COc1ccc2cc(C(C)C(=O)O)ccc2c1 (stereo unspecified)
13. Nc1[nH]c(=O)ncc1F
14. O=C(O)COCCN1CCN([C@@H](c2ccccc2)c2ccc(Cl)cc2)CC1
15. O=C(O)c1cc(C(=O)C(=O)c2cc(C(=O)O)c(O)c3ccccc23)c2ccccc2c1O
16. NC(=O)c1cnccn1
17. NC[C@@H](O)c1ccc(O)c(O)c1
entry no. | 9 | 10 | 11 | 12 | 13 | 14 | 15 | 16 | 17
Casp1 inh | 4% | 1% | 1%&-4%&-1% | 4% | -1%[25.7 µM] | -2%[25.7 µM] | 0%[11.5 µM] | -4% | 0%
Rhodamine fluor | i | i | i | nt | i | i | i | i | nt
USP2a inh | 57%[activator][17.1 µM] | 2% | -14%&6%&-1% | -8% | 2%[17.1 µM] | 48%[activator][17.1 µM] | nt | 1% | -4%
BRCT inh red | -0.5% | 1.7% | 0.1%&0.5%&-1.6% | 0.2% | 0.2%[34.4 µM] | -0.8%[34.4 µM] | -2.8%[15.4 µM] | -2.8% | -3.5%
Pol III holo inh | -4%[25.6 µM] | 1%[25.6 µM] | 5% | nt | -1%[25.6 µM] | 1%[25.6 µM] | -4%[11.4 µM] | 1%&-4% | nt
BRCT PPI green | -0.9% | -2.3% | -0.2% | -1.2%[3.08 µM] | -1.9%[34.4 µM] | 1.0%[34.4 µM] | -2.6%[15.4 µM] | -1.5% | -2.1%[3.08 µM]

10 entries from above in a different format.
#	canonical_smiles	Casp1 inh	Rhodamine fluor	USP2a inh	BRCT inh red	Pol III holo inh	BRCT PPI green
8	CC(C)NCC(O)COc1ccc(CC(N)=O)cc1 (stereo unspecified)	nt	i	nt	nt	nt	nt
9	O=C(c1ccc(OCCN2CCCCC2)cc1)c1c(-c2ccc(O)cc2)sc2cc(O)ccc12	4%	i	57%[activator][17.1 µM]	-0.5%	-4%[25.6 µM]	-0.9%
10	Cc1cnc(C(=O)NCCc2ccc(S(=O)(=O)NC(=O)NC3CCCCC3)cc2)cn1	1%	i	2%	1.7%	1%[25.6 µM]	-2.3%
11	NCCc1ccc(O)c(O)c1	1%&-4%&-1%	i	-14%&6%&-1%	0.1%&0.5%&-1.6%	5%	-0.2%
12	COc1ccc2cc(C(C)C(=O)O)ccc2c1 (stereo unspecified)	4%	nt	-8%	0.2%	nt	-1.2%[3.08 µM]
13	Nc1[nH]c(=O)ncc1F	-1%[25.7 µM]	i	2%[17.1 µM]	0.2%[34.4 µM]	-1%[25.6 µM]	-1.9%[34.4 µM]
14	O=C(O)COCCN1CCN([C@@H](c2ccccc2)c2ccc(Cl)cc2)CC1	-2%[25.7 µM]	i	48%[activator][17.1 µM]	-0.8%[34.4 µM]	1%[25.6 µM]	1.0%[34.4 µM]
15	O=C(O)c1cc(C(=O)C(=O)c2cc(C(=O)O)c(O)c3ccccc23)c2ccccc2c1O	0%[11.5 µM]	i	nt	-2.8%[15.4 µM]	-4%[11.4 µM]	-2.6%[15.4 µM]
16	NC(=O)c1cnccn1	-4%	i	1%	-2.8%	1%&-4%	-1.5%
17	NC[C@@H](O)c1ccc(O)c(O)c1	0%	nt	-4%	-3.5%	nt	-2.1%[3.08 µM]
